Compound activity as filed in PubChem BioAssay.
ALR H2O2 inh: human ALR oxidase inhibition via reduced H2O2; P55789; purified ALR, DTT oxidation, H2O2 HRP-luminol luminescence; inhibition, % (no concentration beside the values); 290,000 compounds, 3.8% hits; AID 485317;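 active means mean and each replicate at 75% or more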;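 further: stock transfer was 7.5 nL into about 7.5 µL; 0% = neutral wells and 100% = wells with inactivated enzyme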
HNF4A DNA FP: change in binding of human HNF4 alpha to DNA | activity change, % at 10 µM | HNF4a-FITC DNA binding, fluorescence polarization, 1 h | 360,000 compounds, 0.3% hits | AID 1224865 | P41235; in the data active means activity change above about 30%, passing the limit was not always enough;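 further: controls were the assay level and a saturating level of protein; the project sought stronger binding though the title names inhibitors; some compounds called inactive have numbers as strong as hits; positive values seem to mean higher polarization but the record does not say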
Target sequence (P41235 whole entry, looked up): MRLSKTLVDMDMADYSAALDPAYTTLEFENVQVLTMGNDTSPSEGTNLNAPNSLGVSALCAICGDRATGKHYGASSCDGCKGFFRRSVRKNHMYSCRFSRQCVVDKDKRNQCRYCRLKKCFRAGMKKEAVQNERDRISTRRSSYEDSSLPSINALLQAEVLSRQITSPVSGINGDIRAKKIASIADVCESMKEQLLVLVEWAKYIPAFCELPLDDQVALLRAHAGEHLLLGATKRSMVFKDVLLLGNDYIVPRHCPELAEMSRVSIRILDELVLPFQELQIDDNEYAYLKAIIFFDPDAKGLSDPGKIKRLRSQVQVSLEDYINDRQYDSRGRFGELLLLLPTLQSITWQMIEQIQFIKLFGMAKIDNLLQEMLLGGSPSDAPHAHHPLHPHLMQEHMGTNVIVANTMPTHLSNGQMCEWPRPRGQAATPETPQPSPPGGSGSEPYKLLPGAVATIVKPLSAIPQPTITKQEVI
FGF22 binding: binders of recombinant human FGF22 by thermal shift. Q9HCT0. SYPRO orange fluorescence; percent of sucrose octasulfate shift, DMSO zero. calls only at 9.99 µM. 340,000 compounds, 1.5% hits. AID 651658;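 active means melting point raised past a set limit in the mean and every replicate; three in four hits are not shown here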
Target sequence (Q9HCT0 whole entry, looked up): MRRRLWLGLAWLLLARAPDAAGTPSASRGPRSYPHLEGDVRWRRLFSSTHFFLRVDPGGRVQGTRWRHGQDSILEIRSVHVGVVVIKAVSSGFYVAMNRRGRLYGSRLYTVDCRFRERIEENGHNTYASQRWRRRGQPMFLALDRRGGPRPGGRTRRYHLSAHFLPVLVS
UCH37 DUB inh: human UCH37 deubiquitinating enzyme inhibition; 330,000 compounds, 0.33% hits; Q9Y5K5; purified proteasome/UCH37, Ub-AMC cleavage fluorescence; inhibition, % (test concentration not listed);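 active means mean of two replicates above 20%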;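 further: 0% = compound-free wells with enzyme and 100% = wells lacking proteasome; stock transfer was 100 nL into about 20 µL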
Target sequence (Q9Y5K5 whole entry, looked up): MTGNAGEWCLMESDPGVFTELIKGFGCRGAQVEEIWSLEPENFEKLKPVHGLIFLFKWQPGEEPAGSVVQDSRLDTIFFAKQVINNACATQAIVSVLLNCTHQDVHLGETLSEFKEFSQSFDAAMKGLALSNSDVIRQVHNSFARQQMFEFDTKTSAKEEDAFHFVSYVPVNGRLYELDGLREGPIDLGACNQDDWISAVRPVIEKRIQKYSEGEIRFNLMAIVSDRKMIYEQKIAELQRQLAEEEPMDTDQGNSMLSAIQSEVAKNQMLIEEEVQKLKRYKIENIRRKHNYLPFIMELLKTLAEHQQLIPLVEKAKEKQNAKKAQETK
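Material: human UCH37 enzyme supplied as purified proteasome complex / Amount: 0.15 nM proteasome as dispensed / Buffer or medium: pH 7.4 Tris-HCl (50 mM) with ovalbumin, ATP-MgCl2, DTT / Times: preincubation 30 min, reaction 25 min, room temperature / Technique: AMC fluorescence from Ub-AMC cleavage, excitation 355 nm, emission 460 nm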
LANA-H2A inh: blocks KSHV LANA binding to histone H2A/H2B. cell-free LANA-H2A/H2B peptide, fluorescence polarization. inhibition, % (no concentration beside the values). 320,000 compounds, 0.6% hits; in the data active means inhibition mostly above about 10%, no sharp cut-off; inactive means mostly below about 6.7%;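 further: stock transfer was 7.5 nL into about 10 µL; 0% = median of vehicle wells and 100% = median of positive control wells; one replicate is shown; the record names a cut of 25% in any replicate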
B2AR ag: activates human beta-2 adrenergic receptor causing internalization. P07550. Am2.2-beta2AR cells, FAP receptor internalization, flow cytometry; reference of the scale not given here. response, % (no concentration beside the values). 340,000 compounds, 0.43% hits. AID 504454;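 active means response above a set limit, near 3 SD of response in nonfluorescent compounds, cut at about 42% in these data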;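 further: stock transfer was 100 nL into about 11 µL; a reference agonist was the positive control; negative values mostly stem from fluorescent compounds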
E coli growth: blocks Escherichia coli growth | OD600, 23 h; hits give low values | OD600 absorbance (test concentration not listed) | 330,000 compounds, 0.21% hits;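 active means OD600 absorbance below the run mean of sample wells minus 3.6 SD, in any replicate, cut at about 0.56 in these data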;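 further: stock transfer was 300 nL into about 60 µL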
An asterisk follows results filed as active; i = inactive; x = no result given. A portion of the library; count on the stated rates, not on these rows.

SMILES	ALR H2O2 inh	HNF4A DNA FP	FGF22 binding	UCH37 DUB inh	LANA-H2A inh	B2AR ag	E coli growth
N#Cc1cc2c(nc1SCC(=O)Nc1sc3c(c1C#N)CCC3)CCCC2	0	2.7	x	-0.8	-4.3	-11	0.79
CSc1ccccc1OCc1cc(C(=O)NC2CCOC(C)(C)C2)no1 (centres undefined)	-2	0.1	i	7.9	2.6	0	0.65
CC(C)c1ccc(Nc2nc(Cl)nc(NCc3ccco3)n2)cc1	-7	0.0	i	5.2	-6.5	8	0.71
NS(=O)(=O)c1ccc(Cl)c(C(=O)Nc2ccccc2[N+](=O)[O-])c1	-6	-3.2	x	0.8	2.6	-8	0.66
CCCCNC(=O)c1cccc(C(=O)NCCCC)c1	-3	4.3	x	0.5	-1.5	-5	0.65
CCC1CCCCN1CCCNC(=O)C1CCCN(c2nn3c(=O)cc(C)nc3s2)C1 (centres undefined)	8	2.1	i	1.6	1.8	5	0.61
COc1ccc(S(=O)(=O)Oc2ccc(C(=S)N3CCOCC3)cc2OC)cc1	4	-0.3	i	1.7	-6.9	1	0.67
CCCN(CCC)CCCNS(=O)(=O)c1cc(Br)cc2c1N(C(C)=O)CC2	-10	1.2	x	6.4	-1.7	-2	0.67
CC(OC(=O)c1cccs1)C(=O)NCCc1ccccc1 (centres undefined)	-11	4.3	i	2.9	2.9	-4	0.69
Cc1sc2nc(CSC(C)C(=O)Nc3ccc(C#N)cc3)[nH]c(=O)c2c1C (centres undefined)	98*	20	i	1.6	-2.6	22	0.67
CCC(C)(C)NC(=O)c1sccc1Oc1ccc(F)cc1[N+](=O)[O-]	-2	3.1	i	4.3	1.9	0	0.69
O=C(CN(c1ccc2c(c1)OCCO2)S(=O)(=O)c1ccccc1)NCc1ccco1	-17	-0.1	x	2.1	3.8	10	0.73
Cc1sc2ncnc(N3CCC(C)CC3)c2c1C	3	0.2	x	0.6	2.0	1	0.7
Cc1cccc(NC(=O)C2CCCN(S(=O)(=O)c3cccc4cccnc34)C2)c1 (centres undefined)	x	1.7	i	1.3	1.2	-4	0.71
O=C(NCCn1ccc2ccccc21)c1cccc([N+](=O)[O-])c1	-14	-3.3	i	5.2	7.2	-6	0.69
COc1ccc(CCNC(=S)N2CCN(S(=O)(=O)c3cccc(F)c3)CC2)cc1	-1	-2.8	x	1.5	3.5	-4	0.66
COc1ccc(C(C)=O)cc1COC(=O)c1ccc(S(=O)(=O)N(C)C)cc1	x	0.8	i	3.7	1.8	-7	0.68
CSc1ccc(-c2c(C#N)c(N)nc3c2CCCC3)cc1	-4	-0.9	x	-64	-3.4	5	0.71
C/C(=N\NC(=O)Cc1cccn1C)c1ccco1	x	3.3	i	x	2.7	-5	x
CC(=O)Nc1c(Cl)c(Cl)c2c(c1Cl)C(=O)c1cc(Cl)ccc1-2	x	5.2	i	1.3	x	-1	0.7
COc1ccc(CNC(=O)CN(C(=O)c2csnn2)c2ccc3c(c2)OCCO3)cc1	1	0.2	i	2.2	-1.3	1	0.7
Cc1ccc(Nc2nnc(SCC(=O)Nc3cccc(S(=O)(=O)N4CCCCC4)c3)s2)cc1	-4	-14	i	2.3	-1.4	-8	0.67
O=C(CSc1ncn[nH]1)NC12CC3CC(CC(C3)C1)C2	-2	-1.6	x	3.4	4.9	0	0.73
Cc1nc(SCC(=O)N(C)C2(C#N)CCCCC2)c2ccccc2n1	7	11	i	4.7	-5.3	18	0.69
O=C(CN1c2ccccc2Sc2ccccc21)NNC(=S)Nc1ccc(Cl)cc1Cl	-8	-0.3	x	x	-2.0	21	x
Cc1nn(C)c(Oc2ccccc2)c1CCNS(=O)(=O)c1ccc(Cl)cc1	12	1.3	x	3.9	5.5	-1	0.7
COc1cccc(N2CCc3c(C)nc4ccc(Cl)cc4c32)c1	-11	4.8	i	-167	-5.0	8	0.63
COc1cccc(CNC(=O)C(=O)NCC2CCCO2)c1 (centres undefined)	-3	-1.4	x	2.2	-1.6	26	0.72
CC(=O)Nc1cccc(-c2nnc(SCC(=O)N3CCCCC3)n2C)c1	x	3.0	x	0.0	2.2	3	0.65
Cc1ccc(OC(=O)CCC(=O)Nc2ccc(C(N)=O)cc2)cc1	-1	-2.9	i	4.0	-3.7	1	0.68

The last 7 entries of the part above come first, to join the parts.
SMILES	ALR H2O2 inh	HNF4A DNA FP	FGF22 binding	UCH37 DUB inh	LANA-H2A inh	B2AR ag	E coli growth
Cc1nc(SCC(=O)N(C)C2(C#N)CCCCC2)c2ccccc2n1	7	11	i	4.7	-5.3	18	0.69
O=C(CN1c2ccccc2Sc2ccccc21)NNC(=S)Nc1ccc(Cl)cc1Cl	-8	-0.3	x	x	-2.0	21	x
Cc1nn(C)c(Oc2ccccc2)c1CCNS(=O)(=O)c1ccc(Cl)cc1	12	1.3	x	3.9	5.5	-1	0.7
COc1cccc(N2CCc3c(C)nc4ccc(Cl)cc4c32)c1	-11	4.8	i	-167	-5.0	8	0.63
COc1cccc(CNC(=O)C(=O)NCC2CCCO2)c1 (centres undefined)	-3	-1.4	x	2.2	-1.6	26	0.72
CC(=O)Nc1cccc(-c2nnc(SCC(=O)N3CCCCC3)n2C)c1	x	3.0	x	0.0	2.2	3	0.65
Cc1ccc(OC(=O)CCC(=O)Nc2ccc(C(N)=O)cc2)cc1	-1	-2.9	i	4.0	-3.7	1	0.68
O=C(Nc1ccc(Br)cc1F)c1ccc2nsnc2c1	-5	-2.5	i	-11	0.8	2	0.64
Cc1onc(-c2c(F)cccc2Cl)c1C(=O)ONC(=O)c1ccccc1	-24	0.8	i	8.6	0.8	4	0.65
CC(C)c1cc(C(N)=O)c(NC(=O)c2cccc(COc3ccc(Br)cc3)c2)s1	-26	4.6	x	-132	-0.9	-3	0.78
O=C(NCc1ccc(F)cc1)C1CCN(c2cnccn2)CC1	-2	0.1	i	-11	-3.6	-4	0.68
C/C(CC(=O)Nc1ccccn1)=N\NC(=O)C(=O)Nc1ccccc1C	6	-0.7	x	x	1.6	-1	x
O=C(Nc1cccc(O)c1)c1cc2nc(-c3ccccc3)cc(-c3ccccc3)n2n1	-1	-3.1	x	-108	-0.6	12	0.7
CS(=O)Cc1cc(Sc2ccccc2)nc(-c2cccnc2)n1 (centres undefined)	x	-4.2	i	3.2	5.3	-4	0.7
COc1ccc2c(Cl)c(C(N)=O)sc2c1	-6	-1.8	x	1.9	-0.2	3	0.74
CC(C)CNC(=O)c1ccccc1NC(=O)CN(c1ccccc1)S(=O)(=O)N(C)C	-4	-4.2	i	0.0	-2.8	3	0.71
Cc1ccc(SCc2cc(=O)[nH]c(N3CCCCC3)n2)cc1	11	0.0	x	2.4	-0.9	-6	0.73
C=C(C)n1c(=O)n(Cc2ccc(C)cc2)c2ccccc21	4	0.8	i	1.3	2.1	0	0.63
O=C(NN=C1CCCCCCCCCCC1)c1cccc(S(=O)(=O)N2CCOCC2)c1	-5	2.8	x	1.0	-0.7	4	0.71
O=C(CCC1CCCC1)N1CCN(C(=O)c2cccnc2)CC1	-6	4.4	x	5.7	2.3	4	0.69
O=C(CN1CCN(C(c2ccccc2)c2ccccc2)CC1)NCc1ccccc1	-3	2.2	i	1.7	2.5	5	0.66
O=C(N/N=C/c1ccccc1OCc1ccccc1)c1cccnc1	-17	0.9	i	x	-3.3	-3	x
CCOC(=O)N1CCc2c(sc(NC(=O)CN3CCN(C)CC3)c2C(=O)Nc2ccccc2)C1	-20	1.4	i	0.7	1.1	-2	0.69
O=C(CN(Cc1ccc2c(c1)OCO2)C(=O)c1cnsn1)NC1CCCC1	x	-0.8	x	1.2	0.8	3	0.77
CCC(=O)Nc1ccc(N2CCN(C(=O)c3cccs3)CC2)cc1	-8	-7.9	x	3.9	4.1	-4	0.72
O=C(CCc1nc2ccccc2c(=O)[nH]1)Nc1cc(Cl)ccc1N1CCCCC1	-3	1.6	i	-2.8	1.3	8	0.72
O=C(c1ccc(OC2CCN(C(=O)C3CC3)CC2)cc1)N(CCO)Cc1ccccc1	-4	1.5	i	-0.3	3.8	-5	0.7
O=C(NNC(=S)NCC1CCCO1)c1cc(Br)ccc1Cl (centres undefined)	22	3.7	i	4.5	5.5	5	0.72
Cc1cccc(CSCc2nnc(N)s2)c1	-3	-0.1	x	1.0	1.0	6	0.69
O=C(Nc1ccc(N2CCOCC2)c(Cl)c1)c1ccco1	x	2.0	x	3.1	-1.2	-8	0.72
Cc1ccc(S(=O)(=O)NCC(=O)N2CCc3ccccc3C2)cc1	2	-0.4	i	2.7	-3.0	-1	0.7
COC(=O)CCC(=O)Nc1cccc(Cl)c1	-1	-1.3	x	2.4	1.5	2	0.73
CCc1nc(N2CCN(Cc3ccc4c(c3)OCO4)CC2)c2oc3ccccc3c2n1	-3	0.2	x	-1.2	2.3	-4	0.73
COc1ccc2c(C)cc(SC3CCOC3=O)nc2c1 (centres undefined)	18	0.3	i	2.0	-6.0	7	0.67
CCCc1cc(=O)[nH]c(SCC(=O)NC2CCCCCCC2)n1	-2	-5.5	i	0.3	2.7	6	0.64
S=c1[nH]nc(-c2ccncc2)n1/N=C/c1ccccc1	x	0.0	x	x	-7.3	2	x
CN(C)c1ccc(N2C(=NC(=O)CC3CCCCC3)SC3CS(=O)(=O)CC32)cc1 (centres undefined)	55	0.9	i	-4.8	4.6	-3	0.69
CCN(C(=O)Cn1c([N+](=O)[O-])cnc1C)c1ccccc1	-3	-3.0	i	2.7	-1.0	0	0.69
Cc1ccc(S(=O)(=O)N[C@@H](CC(C)C)C(=O)NCc2ccco2)cc1	-11	5.5	x	1.8	-0.3	-9	0.75
CC1CCC(C(C)C)C(OC(=O)C[n+]2cccc(C(N)=O)c2)C1 (centres undefined)	-5	1.9	x	2.6	0.5	5	0.72
CCN1CCN(c2ccc(S(=O)(=O)N3CCOCC3)cc2NC(=O)c2ccc(F)cc2Cl)CC1	-1	2.9	i	-0.4	3.6	2	0.69
O=C(NCC(=O)N1CCN(C(=O)c2ccco2)CC1)c1ccc(Br)cc1	-7	-1.1	i	x	0.5	4	x
COCCN(C(=O)COC(=O)C1CCC(C(C)(C)C)CC1)c1c(N)n(Cc2ccccc2)c(=O)[nH]c1=O (centres undefined)	-3	1.6	i	0.4	-0.2	7	0.7
O=C(NCCCN1CCOCC1)c1ccc([N+](=O)[O-])cc1[N+](=O)[O-]	-54	26	i	1.1	1.7	1	0.67
CC(C)(Oc1ccc(Cl)cc1)C(=O)Nc1ccc2oc(=O)ccc2c1	4	3.7	i	-12	-3.0	0	0.68
CCc1nnc(NC(=O)CSc2ccc(-c3ccc(-n4cccn4)cc3)nn2)s1	4	0.0	i	5.4	2.0	13	0.69
COc1cc2c(cc1OC)C1CC(=O)C(CC(C)C)CN1CC2 (centres undefined)	2	0.4	i	-2.0	0.8	6	0.7

Reformatted with two lines to a compound: 2 of the compounds above.
Under each structure – ALR H2O2 inh | HNF4A DNA FP | FGF22 binding | UCH37 DUB inh | LANA-H2A inh | B2AR ag | E coli growth
> CCN1CCN(c2ccc(S(=O)(=O)N3CCOCC3)cc2NC(=O)c2ccc(F)cc2Cl)CC1
    -1 | 2.9 | i | -0.4 | 3.6 | 2 | 0.69
> O=C(NCC(=O)N1CCN(C(=O)c2ccco2)CC1)c1ccc(Br)cc1
    -7 | -1.1 | i | x | 0.5 | 4 | x

(listing goes on)
SMILES	ALR H2O2 inh	HNF4A DNA FP	FGF22 binding	UCH37 DUB inh	LANA-H2A inh	B2AR ag	E coli growth
Cc1cc(C)c2c(CN3CCC(C)CC3)cc(=O)oc2c1C	-1	-2.9	i	7.3	-0.3	18	0.69
Cc1cc(C)c(C(N)=O)c(SCC(=O)c2cc(C)n(-c3cc(C)on3)c2C)n1	6	-0.1	i	-1.5	0.0	-8	0.7
O=c1c2ccccc2[nH]c(=S)n1Cc1cccs1	-1	-1.0	i	0.2	2.5	-1	0.68
CC(CCc1ccccc1)NC(=O)C(C)OC(=O)c1ccco1 (centres undefined)	1	0.8	i	1.5	3.5	-6	0.67
CNS(=O)(=O)c1ccc2ccccc2c1	-9	2.9	i	3.9	0.4	1	0.66
